From PubChem BioAssay
eIF4E 4G PPI: inhibitors of eIF4E and eIF4G interaction in translation initiation | P63073+Q04637 | TR-FRET eIF4E-eIF4GI(517-606) binding, 2 h | inhibition, % at 21.7 µM | AID 782 | actives 0.37% (n = 220,000);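 active means inhibition above about 30%, limit read from the data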;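 further: 0% = full FRET control wells and 100% = background wells lacking eIF4GI fragment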
14-3-3 Bad inh: disrupts binding of bovine 14-3-3 zeta to phospho-Bad peptide; P63103; TR-FRET 14-3-3zeta/Dy647-pBad peptide displacement, 1 h; inhibition, % at 21.7 µM; actives 0.71% (n = 220,000); AID 781;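 active means inhibition above about 70%, limit read from the data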;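 further: 0% = full 14-3-3 plus peptide FRET controls and 100% = background without 14-3-3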
p97 inhibitor: blocks human p97 ATPase activity; P55072; recombinant p97 ATPase, Kinase-Glo ATP luminescence, 3 h; inhibition, % at 8 µM; actives 0.42% (n = 220,000); AID 1481; in the data active means inhibition above about 15%;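 further: 0% = DMSO vehicle and 100% = wells lacking enzyme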
Wee1 stabilizer: inhibitors of human Wee1 degradation; P30291; HeLa Luc-Wee1K328M stability, luciferase luminescence; 100% = proteasome inhibitor MG132 effect; reporter increase, % at 5 µM; actives 1.2% (n = 220,000);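 active means activation above the mean of all tested compounds plus 3 SD, set per screening run, cut at about 8.8% in these data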;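 further: cells exposed to compound for 20 h before luminescence read; 0% = DMSO alone and 100% = MG132 at 30 µM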
Rad51 HR inh: Rad51 (human) homologous recombination inhibition; inhibition, % at 10 µM; Q06609; AID 1385; actives 0.085% (n = 200,000); hRad51 DNA strand exchange, fluorescence dequenching;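 active means inhibition above 40% at the single screening dose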;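 further: 0% = DMSO control wells and 100% = blanks with heterologous ssDNA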
Target sequence (Q06609 whole entry, looked up): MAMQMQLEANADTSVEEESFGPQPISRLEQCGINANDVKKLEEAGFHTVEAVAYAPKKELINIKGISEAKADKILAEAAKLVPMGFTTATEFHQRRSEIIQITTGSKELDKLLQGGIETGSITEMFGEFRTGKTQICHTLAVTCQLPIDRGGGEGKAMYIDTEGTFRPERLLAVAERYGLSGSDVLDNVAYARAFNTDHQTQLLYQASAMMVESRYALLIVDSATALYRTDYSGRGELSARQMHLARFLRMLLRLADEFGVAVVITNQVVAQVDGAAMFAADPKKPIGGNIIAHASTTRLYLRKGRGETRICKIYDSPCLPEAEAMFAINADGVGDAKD
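Material: Human Rad51 nucleoprotein filaments preassembled on unlabelled ssDNA | Also added: Labelled 47-mer dsDNA for strand exchange | Dosing: Single dose, 10 µM final compound | Schedule: 30-min compound preincubation and 15-min exchange, both room temperature | Technique: Fluorescence dequenching at 485/520 nm | Measure: Percent inhibition relative to plate controls and blanks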
hK5 inh: kallikrein 5 (human) inhibition. Q9Y337. recombinant hK5, fluorogenic AMC substrate cleavage. inhibition, % at 5 µM. actives 0.59% (n = 210,000);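 active means inhibition of 40% or more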;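 further: 0% = enzyme controls without compound and 100% = no-enzyme blanks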
Target sequence (Q9Y337 67-293 limits assumed): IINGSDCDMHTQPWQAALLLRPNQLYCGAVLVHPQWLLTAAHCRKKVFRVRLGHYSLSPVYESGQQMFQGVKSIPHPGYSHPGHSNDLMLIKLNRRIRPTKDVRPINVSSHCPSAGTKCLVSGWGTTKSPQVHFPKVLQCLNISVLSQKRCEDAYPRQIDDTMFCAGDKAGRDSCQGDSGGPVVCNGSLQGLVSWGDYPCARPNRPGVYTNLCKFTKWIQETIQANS
Mdm2 ligase inh: inhibitors of human Mdm2 E3 ubiquitin ligase. actives 0.11% (n = 210,000). cell-based MDM2 ubiquitination luciferase reporter, 2 h; 0 = plate control, 100 = twice control, blank-subtracted. signal enhancement, % at 5 µM. AID 1230. Q00987;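 active means signal enhancement of 30% or more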;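 further: luminescence tracks abundance of the self-degrading MDM2-luciferase fusion protein; higher signal means inhibition of MDM2 E3 ligase activity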
Target sequence (Q00987 whole entry, looked up, the tested form may be a part): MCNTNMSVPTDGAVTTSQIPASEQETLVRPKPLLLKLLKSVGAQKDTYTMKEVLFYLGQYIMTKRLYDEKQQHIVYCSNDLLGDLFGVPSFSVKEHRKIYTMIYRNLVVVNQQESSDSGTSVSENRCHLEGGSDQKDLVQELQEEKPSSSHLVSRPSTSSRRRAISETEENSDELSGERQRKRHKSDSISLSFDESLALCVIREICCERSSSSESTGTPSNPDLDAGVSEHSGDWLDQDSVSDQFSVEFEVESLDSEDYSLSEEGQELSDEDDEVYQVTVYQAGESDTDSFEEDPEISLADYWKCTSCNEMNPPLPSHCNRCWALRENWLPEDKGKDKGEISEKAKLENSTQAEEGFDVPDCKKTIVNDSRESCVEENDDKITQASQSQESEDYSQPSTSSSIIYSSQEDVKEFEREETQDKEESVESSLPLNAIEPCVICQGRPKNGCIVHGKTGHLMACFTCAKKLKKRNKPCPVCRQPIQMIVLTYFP
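test system = mammalian cells stably expressing self-ubiquitinating, self-degrading MDM2 E3–luciferase fusion | quantity = 2000 cells/well | incubation = cell settling 4 h, compound treatment 2 h, both 37 °C | signal = luminescence with SteadyLite reagent, 15 min at room temperature | evaluation = % enhancement relative to plate controls after blank subtraction | benchmarks = plate controls and plate blanks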
* = called active by the depositor; . = not tested or not shown; [ ] = remark or other dose.

Preview, 4 compounds:
eIF4E 4G PPI	p97 inhibitor	hK5 inh	14-3-3 Bad inh	Rad51 HR inh	Wee1 stabilizer	Mdm2 ligase inh	molecule
-3	-1	-142	-11	-3	3	-2	CC1C/C(=N\NC(=S)NCc2ccccc2)CC(C)(C)C1 (stereo not drawn)
4	3	4	-7	-2	-1	.	C[C@H](NC(=O)c1nc[nH]c1C(=O)NC1CCN(C(=O)OC(C)(C)C)CC1)C(=O)OCc1ccccc1
4[fluorescence artefact?]	-6	-10	-12	-1	-1	-32	CCOC(=O)c1cc(C#N)c(Oc2ccccc2OC)nc1-c1ccccc1
0	8	-14	3	-6	2	-14	O=C(Nc1ccc2oc(=O)ccc2c1)c1ccco1

Main list, repeating the preview:
eIF4E 4G PPI	p97 inhibitor	hK5 inh	14-3-3 Bad inh	Rad51 HR inh	Wee1 stabilizer	Mdm2 ligase inh	molecule
-3	-1	-142	-11	-3	3	-2	CC1C/C(=N\NC(=S)NCc2ccccc2)CC(C)(C)C1 (stereo not drawn)
4	3	4	-7	-2	-1	.	C[C@H](NC(=O)c1nc[nH]c1C(=O)NC1CCN(C(=O)OC(C)(C)C)CC1)C(=O)OCc1ccccc1
4[fluorescence artefact?]	-6	-10	-12	-1	-1	-32	CCOC(=O)c1cc(C#N)c(Oc2ccccc2OC)nc1-c1ccccc1
0	8	-14	3	-6	2	-14	O=C(Nc1ccc2oc(=O)ccc2c1)c1ccco1
10	-7	-8	4	-7	-2	-3	COc1cccc(/C=N/n2c(-c3cccs3)n[nH]c2=S)c1
8	-1	-5	-1	16	7	0	CCOC(=O)C1=NN(c2ccccc2)C2C(=O)N(c3ccccc3OC)C(=O)C12 (stereo not drawn)
4	0	5	3	-4	-2	-21	CCOC(=O)c1c(-c2ccccc2)nnn1-c1nc(OCC)nc(N2CCCCC2)n1
6	-9	-3	6	-7	-2	-1	COC(=O)c1ccccc1NC(=O)COC(=O)/C=C/c1ccco1
0	-7	4	-10	-6	-2	2	CSc1nc(-c2ccco2)nn1C(=O)Cc1ccccc1
-4	-4	-5	2[fluorescence artefact?]	7	0	-5	COC(=O)C1=NN(c2cccc(C)c2)C2C(=O)N(c3ccccc3OC)C(=O)C12 (stereo not drawn)
-2	-2	-1	0	-3	3	-15	N#C/C(=C\c1ccc(OC(=O)c2ccccn2)cc1)C(N)=O
3	2	-7	-7	.	-2	-4	Cn1c(SCC(=O)NC(=O)NCc2ccco2)nnc1C(F)(F)F
1	6	-9	10	5	2	-3	O=[N+]([O-])c1ccc(/C=N/n2c(-c3cccnc3)n[nH]c2=S)cc1
-3	-6	3	6	30	3	-15	N#CC(C#N)=C(Nc1ccc(F)cc1)SCc1cccc(F)c1
-3	-1	-8	-5	0	0	-6	O=C(COc1ccccc1Cl)NCCC1=CCCCC1
-7	-2	-8	-7	-2	7	-2	Cc1nc(-c2cccnc2)sc1C(=O)Nc1ccc(F)cc1F
-1	-1	0	-3	3	3	-66	CC(C)(C)c1ccc(/C=N/NC(=O)c2ccccn2)cc1
4[fluorescence artefact?]	3	-18	-6	-6	0	-15	CCCc1[nH]nc2c1C(c1ccc(OCCN3CCOCC3)c(OC)c1)C(C#N)=C(N)O2 (stereo not drawn)
0	-2	53*	-7	-5	4	-23	C=CCn1c(SCC(=O)c2ccc(Br)cc2)nnc1C(C)NC(=O)Cc1ccc(OC)cc1 (stereo not drawn)
6	-1	-29	5	1	0	-15	CN(C)CCC(=O)c1ccc2c(c1)OCO2
-7[fluorescence artefact?]	1	3	5	1	0	11	COc1ccc(-c2cnnn2-c2ccc(NC(=O)c3ccco3)cc2)cc1OC
9	7	-22	-1	.	1	.	Cc1cccc(OCCNC(=O)CSc2ccc(C(F)(F)F)cc2[N+](=O)[O-])c1
4	-3	-14	3	-1	-2	-8	CC(=O)c1ccc(NC(=O)CSc2nnc(-c3ccoc3C)n2Cc2ccccc2)cc1
2[fluorescence artefact?]	-5	11	53[fluorescence artefact?]	-2	6	-8	O=C(O/N=C1\CCS(=O)(=O)c2sccc21)c1ccccc1
-1	1	4	-1	-4	-2	-2	COc1ccc(/C=C(/Sc2nnc(-c3ccc(Cl)cc3)o2)C(=O)O)cc1
-1	2	9	79*	0	-2	-14	CCN1CCc2c(sc(NC(=S)NC(=O)c3ccccc3)c2C#N)C1
3	13	-11	-4	-9	0	-19	O=C(Nc1ccc2oc(=O)ccc2c1)c1cccnc1Cl
5[fluorescence artefact?]	-4	-4	16	2	1	-19	CCCCCCNCc1ccc(Br)cc1
7	1	-4	0	-5	-2	-8	Cc1ccnc(SCCn2c(N3CCN(C)CC3)nc3c2c(=O)n(C)c(=O)n3C)n1
-5	3	2	-8[fluorescence artefact?]	-7	8	-12	Fc1cccc(Cl)c1CSc1ncn[nH]1
-7[fluorescence artefact?]	3	-17	-9[fluorescence artefact?]	-2	-1	1	Cc1cc2c(c(=O)n1CC1CCCO1)C(c1ccc3c(c1)OCO3)C(C#N)=C(N)O2 (stereo not drawn)
-1	-3	1	-10	2	0	-24	O=C(N/N=C/C(Cl)=C/c1ccccc1)c1ccccn1
3	-3	-5	5	-1	6	-4	Nc1nc(-c2ccco2)nn1C(=O)c1ccc(F)cc1
2	-10	-7	-3	-4	3	-9	O=C(N/N=C/c1ccc(OC(=O)c2ccco2)cc1)c1ccccn1
1[fluorescence artefact?]	1	-22	4[fluorescence artefact?]	4	3	-3	CCCc1nc(-c2cc3ccc(C)cc3[nH]c2=O)no1
0	3	-5	-10	-3	-1	-6	Cc1nnc(SCC(=O)NC2CCS(=O)(=O)C2)n1Cc1ccccc1 (stereo not drawn)
-3	-10	-36	6	1	0	.	O=C(NCCc1ccccc1)c1nc2nc(-c3cccs3)cc(C(F)(F)F)n2n1
1	0	.	-4	.	1	-11	C/C(CC(=O)NC1CCCCC1)=N\NC(=O)COc1ccc(C)cc1Br
-1	2	0	5	5	0	-15	O=S(=O)(Nc1nc2ccccc2nc1NCC1CCCO1)c1cc(Cl)ccc1Cl (stereo not drawn)
4[fluorescence artefact?]	2	-1	-2	-4	-2	-7	N#Cc1cn(CC(=O)N2CCCC2)c2ccccc12
-2	1	1	-13	5	1	-2	COc1ccc(F)cc1C(=O)C1CCCN(Cc2c[nH]c3ccccc23)C1 (stereo not drawn)
-5	-5	-1	-1	-2	-3	-4	Cc1cc(=O)[nH]c(SCC(=O)Nc2nc3c(s2)CCCC3)n1
-8	-4	3	6	-3	2	-12	COc1ccc(/C=C2\N=C(C)OC2=O)cc1[N+](=O)[O-]
0	1	10	6	.	1	-15	CC(=O)c1c(OC(=O)c2ccco2)c2ccccc2n1C
8	2	-20	-1	-7	1	8	Cn1cnnc1SCc1ccc(C(=O)N/N=C(\CCC(=O)O)c2ccc(C(C)(C)C)cc2)cc1
3	4	-8	-5[fluorescence artefact?]	-1	-6	-13	Cc1cc(C)n(C(=O)c2ccc(C)c(F)c2F)n1
3	3	-7	2	3	-1	.	CC(Cc1ccccc1)C(=O)N1CCN(C)CC1 (stereo not drawn)
0	5	-8	-11	-5	1	-5	CCOC(=O)Nc1cccc(Nc2ccccc2)c1
-11	1	23	4	-1	-2	-5	Cc1ccc(C)c(C(=O)n2cnnc2N)c1
2	-1	-2	0	.	0	8	COc1ccccc1C(=O)n1nc(-c2ccc(Cl)cc2)nc1N

Remaining list, next part:
eIF4E 4G PPI	p97 inhibitor	hK5 inh	14-3-3 Bad inh	Rad51 HR inh	Wee1 stabilizer	Mdm2 ligase inh	molecule
1	5	2	-1	0	0	-3	Cc1cc(-c2[nH]nc3c2C(c2cccc(O)c2)C(C#N)=C(N)O3)c(C)s1 (stereo not drawn)
1	.	-2	-4	-10	.	5	C[C@H](NC(=O)c1[nH]cnc1C(=O)Nc1ccccc1)C(=O)OC(C)(C)C
-11	11	12	12	0	-3	4	O=C(N/N=C/c1ccsc1)c1cc(O)cc(O)c1
-2	2	-8	8	-5	-1	4	CC1=C(C(=O)OCc2ccccc2)C(c2cccnc2)n2nnnc2N1 (stereo not drawn)
-2[fluorescence artefact?]	0	-8	-8[fluorescence artefact?]	.	7	-5	CCOCCCNC(=O)C(=O)NCCCOCC
-4[fluorescence artefact?]	4	4	-4[fluorescence artefact?]	4	2	0	CN(C)CCCNC(=O)c1ccccn1
7[fluorescence artefact?]	3	-16	-11	1	-1	-20	CCn1c(Cc2ccccc2)nnc1SCC(=O)Nc1ccccc1
12	1	-12	8	-8	1	-3	CC(C)Cn1c2ccccc2c2cc(C(=O)O)ccc21
-9	0	-11	-2	.	-3	-15	N#CC(c1ccccc1)(c1ncc(C(F)(F)F)cc1Cl)N1CCOCC1 (stereo not drawn)
-3	1	6	4	2	3	-15	Nc1nc(C(=O)N2CCOCC2)nn1C(=O)c1ccc(Cl)cc1
-1	3	-1	-1	.	4	0	Cc1nn(-c2ccc(C(=O)O)cc2)c2c1C(=O)CC(C)(C)C2
5	4	.	-9	11	-2	-17	Nc1cc(C(F)(F)F)ccc1-n1cccc1
-2	3	-20	0	-3	0	5	CCOC(=O)c1sc(Nc2nc3c(F)cccc3s2)cc1C
7	-6	1	9	.	3	-16	CC(C)CCn1c2ccccc2c2cc(CC(N)=O)ccc21
3	2	4	4	8	1	3	Cc1cc(O)c(NC(=O)c2ccc(Br)o2)cc1C
.	2	4	.	-8	-4	-2	Cc1cccc(OCC(=O)NNC(=O)CSc2ncc(C#N)c(N)n2)c1
0	4	15	10	9	-1	-8	CC(c1ccccc1)C1CC(=O)N(CC(=O)O)C1=O (stereo not drawn)
2	-4	19	0	-2	1	-9	N#Cc1cc2cc3c(cc2nc1NCCNC(=S)NCCCN1CCOCC1)OCO3
-13	6	1	8[fluorescence artefact?]	-3	1	-1	COc1cccc(OCC(=O)NNC(=O)c2ccc(-c3ccccc3)cc2)c1
2[fluorescence artefact?]	2	-9	3	-4	2	-10	COCCn1c(=NC(=O)CSCC(=O)NC2CCCCC2)sc2cc(OC)ccc21
5	3	21	2	2	1	-13	CCOC(=O)c1c(C)n(C(=O)c2ccco2)c(=O)n1C(=O)c1ccco1
-4	-3	-2	-4	-4	-3	2	COc1ccc(CN2CCNC(=O)C2CC(=O)NCCC2=CCCCC2)cc1OC (stereo not drawn)
3	-6	-4	-11	7	4	.	CCOC(=O)N1CCN(C(=O)C2CCCN(S(C)(=O)=O)C2)CC1 (stereo not drawn)
-28	3	-3	-26	-23	-2	-7	COc1ccccc1N1C(=O)C2C(C(=O)c3ccccc3)=NN(c3ccccc3OC)C2C1=O (stereo not drawn)
-19	-1	-18	1	-1	4	-8	CCOC(=O)N1CCN(C(=O)c2cc(Cl)c(Cl)cc2C(=O)O)CC1
0	4	.	-5	-9	3	-11	CSc1ccc(-c2nc(CN(C)C3CCOC3)c(C)o2)cc1 (stereo not drawn)
-6	8	-2	15	1	0	13	CCOc1cc(/C=N/NC(N)=O)ccc1OCC(=O)Nc1ccc(C)c(C)c1
6[fluorescence artefact?]	0	6	-4	-9	2	-2	CCCCn1ccc(=O)c2c(C(F)(F)F)nccc21
4	-4	3	0	-5	-2	-7	O=C1OC(c2ccc(Br)cc2)=N/C1=C\c1ccco1
3	2	3	-14	6	2	-18	C=CCNc1ncnc2c1cnn2-c1ccc(OC)cc1
-6	4	-1	-1	2	5	-3	CCCCOC(=O)c1cccc(NC(=O)CC)c1
0	-1	4	6	-13	1	-11	CCOC(=O)c1cc(C#N)c(N2CCOCC2)nc1-c1ccccc1
-2	5	-29	3	10	-1	-5	COC(=O)Cc1cc(=O)[nH]c(/N=C(\N)Nc2ccccc2)n1

Another view of part of the listing above.
molecule | eIF4E 4G PPI | p97 inhibitor | hK5 inh | 14-3-3 Bad inh | Rad51 HR inh | Wee1 stabilizer | Mdm2 ligase inh
COc1cccc(OCC(=O)NNC(=O)c2ccc(-c3ccccc3)cc2)c1 | -13 | 6 | 1 | 8[fluorescence artefact?] | -3 | 1 | -1
COCCn1c(=NC(=O)CSCC(=O)NC2CCCCC2)sc2cc(OC)ccc21 | 2[fluorescence artefact?] | 2 | -9 | 3 | -4 | 2 | -10

Some of the compounds tested. The share of hits here may be higher or lower than overall.
